# Beta2AR agonist: beta2AR agonists driving receptor internalization, primary screen, cell-based, FAP fluorogen, flow cytometry | Beta-2 adrenergic receptor (Homo sapiens), P07550 | Am2.2-beta2AR cells; reference of the scale not given here | response, % (test concentration not listed) | hit rate 0.43% among 340,000 | AID 504454, 2011;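 active = response above a set limit, near 3 SD of response in nonfluorescent compounds, cut at about 42% in these data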;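 also: stock transfer was 100 nL into about 11 µL; a reference agonist was the positive control; negative values mostly stem from fluorescent compounds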
# Target sequence (P07550 whole entry, looked up): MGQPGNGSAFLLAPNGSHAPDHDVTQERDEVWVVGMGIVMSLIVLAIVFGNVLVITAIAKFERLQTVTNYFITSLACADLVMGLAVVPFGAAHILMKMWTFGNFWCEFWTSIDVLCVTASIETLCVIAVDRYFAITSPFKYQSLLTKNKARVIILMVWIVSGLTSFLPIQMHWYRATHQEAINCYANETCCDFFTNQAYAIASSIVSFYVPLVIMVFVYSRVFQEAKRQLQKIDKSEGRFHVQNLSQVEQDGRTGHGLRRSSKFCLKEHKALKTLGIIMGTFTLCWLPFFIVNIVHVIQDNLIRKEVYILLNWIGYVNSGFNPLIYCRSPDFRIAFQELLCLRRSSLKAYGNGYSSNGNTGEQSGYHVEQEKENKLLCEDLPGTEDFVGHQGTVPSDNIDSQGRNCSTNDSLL
# Bfl-1 A1 inh: caspase 3/7 activation in MEF A1-2A-BIM cells, primary screen, A1 inhibitor project, cell-based, luminescence, HTS; Caspase-Glo 3/7 luminescence, 3 h; percent of clofoctol response, vehicle zero; caspase activation, % (no concentration beside the values); hit rate 0.066% among 330,000;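 active = over half of replicate activation scores above 10%, or exactly half above 10 with the replicate mean above 10; inconclusive = replicate mean below 10 yet half the replicates above 10; inactive = over half of replicates below 10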;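 also: wells of about 30 µL received 50 nL stock; many hits fall short of the cut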
# Calb FLC: C. albicans growth inhibition with fluconazole, primary screen, CaCi-2 strain, Alamar Blue fluorescence | growth inhibition, % (test concentration not listed) | C. albicans CaCi-2 (fluconazole-resistant clinical isolate) + fluconazole, 48 h | hit rate 0.57% among 300,000;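 active = most replicates above 75%; inconclusive = exactly half above 75%; inactive = most below 75%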;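 also: all wells also contain fluconazole at 8 µg/ml as a sub-toxic cotreatment; 0% = median of DMSO wells and 100% = median of geldanamycin control wells; wells of about 8 µL received 7.5 nL stock; the first replicate is given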
# Beta cell apopt: inhibitors of cytokine-induced beta cell apoptosis, primary screen, luminescence; INS-1E cytokine-induced death, ATP luminescence, 48 h; percent of positive-control rescue, neutral wells zero; protection from apoptosis, % (concentration not given with the values); hit rate 0.8% among 300,000; AID 435005, 2010;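 active = all replicates at 75% or more, or half of them and the mean; inconclusive = half reach 75% but not the mean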;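 also: 0% = cytokine-treated negative control wells and 100% = positive control rescue; higher means more ATP so stronger rescue from cytokine killing; wells of about 40 µL received 100 nL stock; the first replicate is given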
# T cruzi inh: inhibitors of intracellular T. cruzi growth, primary screen, luminescence, NIH3T3 host cells; T. cruzi beta-gal in NIH3T3, 90 h; inhibition, % (concentration not given with the values); hit rate 1.4% among 300,000;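 active = mean inhibition across valid replicates above about 55%, limit read from the data; inconclusive = mean below that limit but half or more replicates reach it; inactive = mean below it, under half of replicates reach it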;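 also: signal also drops with host cell toxicity which is not excluded here; 0% = plate median of DMSO wells and 100% = zero luminescence signal; higher percent means less beta-gal luminescence so fewer parasites; stock transfer was 50 nL into about 50 µL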
# RanGTP-Imp inh: inhibitors of RanGTP-importin-beta interaction, primary screen, biochemical, FRET, CFP-Ran, YFP-importin-beta, homogeneous. Ran GTPase (GTP-bound) - importin-beta complex. hit rate 1.1% among 300,000. AID 2216, 2009. inhibition, % (no concentration beside the values). cell-free CFP-Ran/YFP-importin-beta FRET ratio;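 active = most replicates above 15%; inconclusive = exactly half above 15%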;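 also: 0% = DMSO wells and 100% = Ran loaded with GDP instead of GTP; wells of about 40 µL received 100 nL stock; the first replicate is given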
# UCH37 inh: inhibitors of human UCH37 deubiquitinase, primary screen, biochemical, Ub-AMC cleavage, fluorescence; Ubiquitin carboxyl-terminal hydrolase isozyme L5 (Homo sapiens), Q9Y5K5; purified proteasome/UCH37; inhibition, % (test concentration not listed); hit rate 0.33% among 330,000; AID 588478, 2011;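 active = mean of two replicates above 20%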;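 also: 0% = compound-free wells with enzyme and 100% = wells lacking proteasome; stock transfer was 100 nL into about 20 µL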
# Target sequence (Q9Y5K5 whole entry, looked up): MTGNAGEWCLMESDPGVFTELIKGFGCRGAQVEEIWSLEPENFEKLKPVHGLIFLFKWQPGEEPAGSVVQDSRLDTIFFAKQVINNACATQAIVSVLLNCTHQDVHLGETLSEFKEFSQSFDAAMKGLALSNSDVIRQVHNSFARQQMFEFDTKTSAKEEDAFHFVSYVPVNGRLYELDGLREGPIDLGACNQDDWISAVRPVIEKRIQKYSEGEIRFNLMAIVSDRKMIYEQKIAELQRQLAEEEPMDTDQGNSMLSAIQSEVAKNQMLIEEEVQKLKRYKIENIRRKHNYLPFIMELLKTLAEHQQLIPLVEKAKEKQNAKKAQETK
#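 Reagent: Ub-AMC substrate; assay system: Proteasome-associated human UCH37 deubiquitinase; controls: no-proteasome and no-compound wells; read-out: % inhibition of Ub-AMC cleavage fluorescence; timing: 30 min preincubation with enzyme, 25 min cleavage at room temperature; signal: AMC fluorescence from Ub-AMC cleavage, excitation 355 nm, emission 460 nm; buffer or medium: Tris-HCl pH 7.4 plus ovalbumin, ATP-MgCl2, DTT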
# LANA-H2B inh: blockers of LANA interaction with H2A/H2B – biochemical, FP readout, HTS, primary screen | Protein LANA1 (Human herpesvirus 8 type P (isolate GK18)), Q9QR71 | cell-free LANA-H2A/H2B peptide, fluorescence polarization | inhibition, % (concentration not given with the values) | hit rate 0.6% among 320,000 | AID 2629, 2010; in the data active = inhibition mostly above about 10%, no sharp cut-off; inactive = mostly below about 6.7%;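 also: stock transfer was 7.5 nL into about 10 µL; 0% = median of vehicle wells and 100% = median of positive control wells; one replicate is shown; the record names a cut of 25% in any replicate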
# The depositor's hits bear a star; ? = inconclusive; / = no result given.
SMILES,Beta2AR agonist,Bfl-1 A1 inh,Calb FLC,Beta cell apopt,T cruzi inh,RanGTP-Imp inh,UCH37 inh,LANA-H2B inh
Cc1ccc2c(C(=O)CN3CCCCC3CCO)c(C)[nH]c2c1 (configuration not stated),-1,0.3,1,-4,-10,0.2,2.0,-3.8
CO/N=C/NC(=O)N1OC[C@@H]2COc3ccc4ccccc4c3[C@@H]21,7,-0.7,3,-1,8,-1.6,/,-4.2
O=C(Oc1cccc(OC(=O)c2ccco2)c1)c1ccco1,-2,0.1,4,-5,-9,-0.6,-1.5,1.7
O=C(NCC(c1cccs1)N1CCOCC1)c1ccc(OCc2ccccc2)cc1 (configuration not stated),-5,0.1,/,-9,/,/,-0.1,/
Cc1ccc(N(CC(=O)NC2CCCCCC2)S(=O)(=O)c2c(C)nn(C)c2C)cc1,23,-0.7,0,0,12,?,0.6,-0.8
CC(C)(C)n1ncc2c(=O)n(Cc3ccccc3Br)cnc21,-3,-0.1,/,-3,/,/,2.4,2.1
O=C1CC(Sc2cccs2)C(=O)N1c1ccccc1 (configuration not stated),1,-0.2,2,-21,11,-1.0,3.7,-4.4
CCCCC(=O)Nc1cnc(NC(=O)c2ccco2)cc1C,-17,-1.3,3,5,1,-2.8,1.7,1.7
Fc1cccc(F)c1/C=N/NC(=S)Nc1cccnc1,-3,-0.7,?,/,-21,1.0,/,-2.0
C/C(NC1CCCCC1)=C(/C#N)C(=O)NCCN1CCOCC1,-9,0.1,-1,1,-9,0.4,1.4,-3.1
COc1ccc(CC(=O)N/N=C(\C)CC(=O)Nc2ccc3c(c2)OCCO3)cc1,1,-0.2,-5,-2,-2,6.2,/,-1.0
COc1cc(C2C3=C(CCCC3=O)Nc3ccc4ncccc4c32)ccc1O (configuration not stated),11,0.8,?,/,-36,-1.9,-5.6,-3.8
CCc1ccc2[nH]c(=O)c(CN(CCCN3CCOCC3)C(=O)Nc3ccc(F)cc3)cc2c1,7,0.6,21,-3,17,7.7,-0.6,-1.8
COc1ccc2nc(C)cc(SCC(=O)Nc3c(C)cccc3C)c2c1,-30,0.4,10,-9,-14,1.1,-3.9,2.7
CN(C)CCCNC(=O)CCc1nc2ccccc2c(=O)[nH]1,-4,0.4,-14,-3,-8,0.1,20*,11
O=S(=O)(c1cccs1)N1CCN(CC(O)COc2cccc(Br)c2)CC1 (configuration not stated),4,-1.1,16,3,9,-0.3,3.1,-8.4
COc1cc(C(=O)Nc2nnc(SC)s2)c([N+](=O)[O-])cc1OC,3,1.0,-24,0,-16,3.5,2.7,0.3
CCCN1CCN(S(=O)(=O)c2cn(C)nc2C)CC1,3,1.1,/,-3,-8,/,0.4,7.6
O=C(CSc1nncs1)NCCNC(=O)CSc1nncs1,-1,0.8,/,2,-4,-5.0,1.0,9.6
O=C1CC(N2CCN(C(c3ccccc3)c3ccccc3)CC2)C(=O)N1 (configuration not stated),5,-0.8,29,-4,-20,2.2,4.0,0.0
COc1ccc(-n2nc(C)cc2Nc2ccccc2C(=O)O)cc1,5,0.2,3,-3,/,0.7,2.2,0.8
N#Cc1ccc(C(c2nnnn2CCc2ccccc2)N2CCCCCC2)cc1 (configuration not stated),3,0.1,16,11,20,7.2,2.8,6.2
O=C(COC(=O)c1ccc([N+](=O)[O-])o1)NC1CCS(=O)(=O)C1 (configuration not stated),1,-0.3,12,0,4,0.5,25*,4.2
Cn1ccnc1SCC(=O)Nc1ccc2c(c1)COC2=O,-1,0.4,-4,-6,-7,3.8,2.8,-3.5
COC(=O)CSc1nnc(NC(=O)c2ccc3c(c2)OCO3)s1,35,0.4,0,/,-6,-0.1,-2.6,-18
O=C1Nc2c(Br)cccc2C1=O,9,0.5,/,-8,/,/,12,-379
O=C(NCCC1=CCCCC1)c1cc(S(=O)(=O)N2CCOCC2)ccc1Cl,-6,-0.1,5,-8,-9,9.5,3.5,-1.0
CC[C@H](C)[C@H](NC(=O)OCc1ccccc1)C(=O)OCC(=O)Nc1ccc(N2CCOCC2)cc1,5,0.9,-2,/,15,3.3,5.0,-0.9
CCc1ccc2[nH]c(O)c(N=Nc3nc(-c4ccccc4)cs3)c2c1,-1,-0.3,7,22,33,-1.7,5.9,4.9
COc1ccc(C)cc1NC(=O)CN(C)C1CCCCC1,-2,-0.2,-3,-6,6,0.5,4.4,2.8
COc1ccccc1NC(=S)N(Cc1ccco1)Cc1cc2cc(C)ccc2[nH]c1=O,6,0.2,6,2,-4,1.5,-2.2,1.9
Clc1ccc(-c2noc(CN(Cc3ccccn3)CC3CCCO3)n2)cc1 (configuration not stated),-3,0.4,-3,-7,0,1.3,3.7,-6.2
O=C(Nc1nc2c(s1)CCCC2)C1CCCN1C(=O)c1cccs1 (configuration not stated),1,0.6,?,2,4,1.3,1.5,1.5
Nc1ccccc1-n1cccc1,5,0.2,-2,-3,-6,-1.0,-22,0.5
Cc1ccc(C(=O)NCc2ccc(Cl)c(Cl)c2)o1,-1,0.8,-10,-10,-1,1.1,2.8,-0.6
COc1cccc(/C=N/NC(=O)c2ccc(COc3ccc(Cl)cc3Cl)o2)c1,-5,0.0,17,-4,/,3.3,/,5.0
Cc1ccc(S(=O)(=O)N2CCC(=O)N(CCOC(=O)Nc3ccc(C)c(C)c3)CC2)cc1,-8,-0.7,29,4,4,3.8,4.4,5.3
O=C(CCCN1C(=O)c2ccccc2C1=O)N1CCOCC1,-2,-0.6,?,-1,-6,4.0,0.7,-2.1
O=S(=O)(c1ccccc1)N1CCN(c2nc3ccccc3s2)CC1,-6,-0.4,3,2,-8,-2.2,5.5,-7.1
N/C(=N\OC(=O)CCC(=O)O)c1ncc(C(F)(F)F)cc1Cl,7,-0.5,-6,/,1,?,/,0.7
OCC1(CCc2ccccc2)CCN(Cc2cnc(N3CCCC3)s2)CC1,1,0.4,-9,-6,41,3.6,-1.0,0.7
Cc1ccccc1OC(=O)Cn1c(C(F)(F)F)nc2ccccc21,-4,0.2,8,0,-14,0.8,1.8,2.7
Cc1c(C)c2ccc(OCC(=O)NCc3ccccn3)cc2oc1=O,0,0.8,0,-7,-3,3.7,-122,-4.7
Cc1ccc(-n2nnnc2SCC(=O)NCC2(N3CCCCC3)CCCCC2)c(C)c1,16,0.5,/,8,/,/,0.1,0.5
CCCCNC(=O)Cn1cnc([N+](=O)[O-])n1,-8,1.5,1,-3,43,4.0,3.7,-3.3
CCCCCC1CCC(C(=O)N2CCOCC2)CC1 (configuration not stated),4,-0.6,-1,-3,1,0.3,4.8,-1.6
COCCNC(=O)/C(C#N)=C/c1ccc2c(c1)OCO2,1,-1.0,-29,-4,-27,-2.7,4.1,2.7
Cc1ccc(S(=O)(=O)NC(CC(=O)NCc2ccco2)c2ccco2)cc1 (configuration not stated),-8,0.5,-7,0,1,-0.7,3.4,-6.6
COc1ccc(S(=O)(=O)Nc2cc3c4c(oc3c3ccccc23)CC(C)(C)CC4=O)cc1,5,0.1,49,-3,38,1.7,4.3,8.0
O=C(NCc1ccccc1)NC1(C(=O)N2CCN(c3ncccn3)CC2)CCCCC1,4,1.3,-9,-6,-4,-1.7,-0.9,-2.6
Cc1ccc(NC(=O)CCC(=O)NNC(=O)Cc2ccccc2)cc1C,-2,-0.1,8,-4,-4,0.9,-1.0,0.3
Cc1cccnc1,-2,0.1,/,3,/,/,3.8,-4.4
CC(C)CNC(=O)C1CCN(S(=O)(=O)c2ccc(-n3cnnn3)cc2)CC1,-3,0.3,2,-1,-14,0.2,2.3,-1.3
N#Cc1cc(Cl)c(NCC2CCCO2)cc1C#N (configuration not stated),-6,0.9,28,4,-7,3.1,-86,6.5
CC1(C)CC(NC(=O)Nc2ccc([N+](=O)[O-])cc2)CC(C)(C)N1,4,0.1,-11,-5,-17,-1.2,-0.1,-4.7
Cc1ccc(C(=O)CC(SCC(=O)O)c2ccc([N+](=O)[O-])cc2)cc1 (configuration not stated),-1,0.8,-15,0,-11,-6.0,1.9,-1.5
CCCCOC(=O)Nc1nc(CC(=O)OCC)cs1,5,0.7,-19,-6,0,-1.2,1.3,2.7
O=C(O)/C=C/c1cn(-c2ccccc2)nc1-c1ccc2c(c1)OCCO2,-4,0.0,31,-1,40,-6.8,5.5,-2.5
O=P(OC1CCCCC1)(OC1CCCCC1)C(Nc1ccccc1)c1cccnc1 (configuration not stated),13,-0.5,2,-9,25,0.2,2.0,-1.9
CCOC(=O)C(=CNc1cscc1S(=O)(=O)C(C)C)C(=O)OCC,1,0.3,-2,-11,/,1.0,-0.7,-1.4

# Continuation.
SMILES,Beta2AR agonist,Bfl-1 A1 inh,Calb FLC,Beta cell apopt,T cruzi inh,RanGTP-Imp inh,UCH37 inh,LANA-H2B inh
Cc1cc(C)n2nc(SCC(=O)N(C)c3c(N)n(Cc4ccccc4)c(=O)[nH]c3=O)nc2n1,-14,0.5,-9,-4,-8,-0.1,3.8,0.5
CSc1nc2c(c(=O)[nH]1)C(c1cccs1)C1=C(CCCC1=O)N2 (configuration not stated),-3,-0.6,1,2,-13,8.7,-20,-5.6
CN1OC2C(=O)N(c3ccccc3)C(=O)C2C1c1ccc(F)cc1 (configuration not stated),6,0.2,-2,3,-13,5.7,1.6,-4.7
CCOC(=O)C(CCC(C)=O)C(=O)c1ccccc1 (configuration not stated),3,-0.7,-1,/,-12,8.3,0.0,-3.3
Cc1cccc(Nc2nc(NCc3ccco3)c3ccccc3n2)c1,39,-0.2,4,91*,52,-0.8,-92,-4.5
CCOC(=O)c1ccc(C(=O)OCC)nc1,1,-0.4,2,2,-33,-1.8,1.6,0.2
Cc1ccc(N2CC(C(=O)O)CC2=O)cc1 (configuration not stated),-3,-4.5,-3,-1,-7,-0.1,2.8,-1.4
O=C(NCc1ccccn1)c1ccc(N2CCCC2=O)cc1,0,1.1,3,-2,-6,8.0,0.1,2.2
CCN1CCN(c2cc(C)c3cc(NC(=O)c4cc(OC)cc(OC)c4)ccc3n2)CC1,14,-0.6,-6,3,34,-0.6,6.2,-3.0
CCCNC(=O)NC(=O)CN1C(=O)NC(C)(c2ccc3ccccc3c2)C1=O (configuration not stated),-5,0.6,-5,9,-12,4.3,2.4,2.4
Cc1ccc(CSc2nncn2-c2ccccn2)cc1,-8,-1.0,-3,-6,8,1.7,-0.5,-1.7
COc1cc(CNC(C)(C)C)cc(Br)c1OCc1cccs1,7,0.5,-12,-8,22,0.7,2.0,-0.1

# Compound activity: PubChem BioAssay, several laboratories
